Bioassay records deposited in PubChem BioAssay by National Center for Advancing Translational Sciences (NCATS).
Rango complex inh – Rango-importin beta binding inhibition; Q14974; Rango CFP/YFP FRET sensor + importin beta, 45 min; Potency, µM (titrated, usually from 92.2 µM), without a hit: at the highest dose inhibition of complex formation; AID 540263; actives 0.031% (n = 340,000); active = rising FRET ratio curve, often small or poorly fitted; inconclusive = mostly compound fluorescence or quenching in the first reads; inactive = flat curves in all reads;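 note: potency is the fitted concentration of half-maximal effect; 0% = DMSO wells and 100% = buffer wells lacking importin beta; nearly all actives have a fitted effect of over 15% in size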
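Inhibition scored from the CFP 486 nm/YFP 530 nm FRET ratio 45 min after adding 0.125 microM importin beta to 50 nM Rango biosensor preincubated 5 min with compound (room temperature, PBS with DTT, Tween-20, BSA). No-importin wells as positive control.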
GLA inh pH 4.5 – blocks human alpha-galactosidase A at pH 4.5; P06280; purified enzyme, 4-MU-alpha-Gal fluorescence, pH 4.5; activity change, negative = inhibition, % at 105 µM; 230,000 tested, under 10 active; AID 1467; inconclusive = small, poorly fitted or top-dose-only inhibition, or a rising curve; inactive = flat fitted curve, though single readings scatter; no compound was filed as active;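 note: 0% = full activity with enzyme and -100% = basal without enzyme; dose as in the result columns while the protocol names 77 µM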
Target sequence (P06280 whole entry, looked up): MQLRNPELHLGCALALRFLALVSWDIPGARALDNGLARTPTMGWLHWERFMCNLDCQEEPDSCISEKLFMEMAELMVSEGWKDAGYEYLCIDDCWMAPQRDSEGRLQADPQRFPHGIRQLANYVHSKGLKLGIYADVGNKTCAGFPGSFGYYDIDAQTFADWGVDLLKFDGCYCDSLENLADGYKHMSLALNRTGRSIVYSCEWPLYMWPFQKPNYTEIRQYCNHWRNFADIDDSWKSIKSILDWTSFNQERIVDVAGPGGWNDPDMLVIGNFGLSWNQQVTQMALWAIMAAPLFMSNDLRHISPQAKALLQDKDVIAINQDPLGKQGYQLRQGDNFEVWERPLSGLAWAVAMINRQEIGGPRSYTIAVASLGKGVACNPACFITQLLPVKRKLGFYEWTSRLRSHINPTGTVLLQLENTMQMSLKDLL
miR-21 reporter – raises the signal of a miR-21 reporter; HeLa miR-21 FLuc reporter, luciferase, 48 h; Potency, µM (highest dose often 38.3 µM), inactives show top-dose reporter change, positive = more light; 340,000 tested, under 10 active; active = well fitted rising curve with a large enough effect; inconclusive = small, poorly fitted or top-dose-only effect; inactive = no such curve, though single readings can be large or run the other way;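 note: % of control where 0% means no effect; miR-21 action dims this reporter so a rising signal means less miR-21 action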
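HeLa cells stably expressing CMV-driven firefly luciferase with a downstream miR-21 binding sequence, endogenously expressing miR-21, were treated with titrations (up to about 40uM final) for 48 hours at 37 degree Celsius. Luciferase luminescence was read after lysis.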
Rango release inh – inhibition of RanGTP-driven Rango-importin beta dissociation; actives 0.071% (n = 340,000); Biochemical FRET Rango-importin beta, RanGTP-induced dissociation; Potency, µM (series often up to 46.1 µM), for the others: top-dose activity change, negative = inhibition; active means falling FRET ratio curve, often poorly fitted, with flat reads before Ran was added; inconclusive means other falling curves, or compound fluorescence or quenching; inactive means flat or rising ratio curve;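 note: potency is the fitted concentration of half-maximal effect; % of control where 0% means no effect; nearly all actives have a fitted effect of over 45% in size; -100% = wells without RanGTP and RCC1; the record marks most hits as doubtful in a second field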
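Recombinant Rango FRET biosensor (EYFP–snurportin 1 IBB–cerulean CFP10) at 0.1 uM premixed with 0.25 uM importin beta in PBS, 1 mM DTT, 0.02% Tween-20, 0.1% BSA. Compound added 5 min; RanGTP-RCC1 (0.6 uM Ran, 2 mM GTP, 0.2 uM RCC1) then triggers release, read at 45 min.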
An asterisk follows results filed as active; ? = inconclusive; nt = no result given. Some of the compounds tested, so the mix of outcomes need not match the whole.

SMILES	Rango complex inh	GLA inh pH 4.5	miR-21 reporter	Rango release inh
CCC(C)N(C)Cc1cccc(C2(O)CCN(S(=O)(=O)c3ccc(F)cc3)CC2)c1 (centres undefined)	0.0%	-10	-6%	-5%
C[C@]12c3[nH]c4ccc(Cl)cc4c3CCN1C(=O)[C@@H](CC(=O)NCC13CC4CC(CC(C4)C1)C3)C[C@@H]2C(=O)N1CCOCC1	1.1%	nt	nt	16%
CC1CN(Cc2ccccc2)C(=O)NC1=O (centres undefined)	?	nt	nt	?
O=C(COc1ccc(F)cc1Cl)Nc1cc(S(=O)(=O)N2CCOCC2)ccc1N1CCCCC1	-0.5%	nt	11%	-2%
CC(=NO)C1CCC2C3CCC4=CC(=NO)CCC4(C)C3C(=O)CC12C (centres undefined)	-1.6%	nt	nt	0%
NS(=O)(=O)c1ccc(CCNC(=O)COC(=O)C2CCCN2C(=O)c2cccs2)cc1 (centres undefined)	-2.2%	3	-2%	-2%
Cc1cc(NC(=O)CSc2c3c(nc4ccccc24)CCC3)no1	0.5%	2	11%	-1%
Cc1sc2ncnc(OCC(=O)Nc3ccc4c(c3)OCCO4)c2c1C	0.2%	-6	-12%	-17%
NC(=O)c1nc(-c2cccs2)nc2c1[nH]c(=O)n2-c1ccc(F)cc1	3.9%	-5	3%	0%
CC(C)(C)OC(=O)CC[C@@H](C(=O)NCCCCCCCCCCC(=O)N1CCN(C(=O)OC(C)(C)C)CC1)n1cc(CCCCCNC(=O)OC(C)(C)C)nn1	2.9%	nt	nt	-13%
c1ccc2c(c1)OCC(c1nnc3sc(-c4ccc5c(c4)OCO5)nn13)O2 (centres undefined)	?	-6	-31%	-17%
CCOc1ccc(NC(=O)c2ccc(Br)o2)c([N+](=O)[O-])c1	0.6%	-2	-16%	3%
Cc1ncc([N+](=O)[O-])n1CC(=O)N/N=C/c1ccc(F)cc1	-0.1%	1	-2%	-3%
c1ccc(Nc2nnc(SCc3cccc4ccccc34)s2)cc1	-1.3%	-14	-17%	-8%
COc1ccc(-c2cc(C(F)F)n3ncc(C(=O)N4CCN5CCCC5C4)c3n2)cc1 (centres undefined)	-2.3%	4	-24%	-9%
Cc1cccc(C)c1NC(=S)Nc1ccc(Cl)c(Cl)c1	-3.4%	-5	13%	-11%
Cc1cccn2c(=O)c3cc(C(=O)NCc4ccco4)c(=N)n(CCc4ccccc4)c3nc12	?	1	4%	?
Cc1cccc([C@@H]2[C@@H]3C(=O)N(Cc4ccccc4)C(=O)[C@@H]3[C@]3(CC(C)C)C(=O)N(c4cccc(Br)c4)C(=O)N23)c1	-0.8%	nt	6%	43%
Cc1cc(C)c(NC(=O)CN2C(=O)NC(Cc3ccccc3)C2=O)c(C)c1 (centres undefined)	-3.4%	7	7%	21%
COc1ccccc1-n1c(CNC(=O)c2cccc([N+](=O)[O-])c2C)n[nH]c1=S	1.8%	3	-5%	-13%
Cc1ccc(S(=O)(=O)N2CCSC2)cc1C	-3.6%	3	-7%	15%
Clc1ccc(-c2nc(-c3cnccn3)no2)cc1	-2.7%	-5	-63%	-3%
O=P(O)(OCc1ccccc1)OCc1ccccc1	-0.8%	nt	nt	1%
CC1CCCN(C(=O)CCc2ccccc2)C1 (centres undefined)	-2.5%	-6	-27%	-8%
CCCCc1cc(=O)oc2cc(OCC(=O)N3CCC(C(N)=O)CC3)ccc12	3.4%	nt	-7%	6%
O=C(CCN1C(=O)C2CCCCC2C1=O)Nc1ccc(OC(F)F)cc1 (centres undefined)	0.5%	nt	nt	1%
CC(C)(C)C(=O)NC(=S)Nc1ccccc1F	-5.0%	9	-26%	-8%
Brc1ccc2oc(-c3ccn[nH]3)cc2c1	-0.6%	4	-74%	-4%
Cc1cccc(-n2c(C)cc(/C=N\NC(=O)c3cccs3)c2C)c1	0.1%	3	-11%	?
CC(=O)CSc1nc(-c2ccccc2)c(-c2ccccc2)o1	2.8%	nt	-3%	-10%
CCOc1ccccc1NC(=O)COC(=O)/C=C/c1ccc(OC)c(OC)c1	0.4%	15	22%	-15%
Cc1c(C)c2ccc(OCC(=O)NC3CCN(Cc4ccccc4)CC3)c(C)c2oc1=O	1.5%	nt	-1%	0%
COc1cc(C2CC(=O)c3cnc(N)nc3C2)cc(OC)c1OC (centres undefined)	-0.1%	0	-10%	15%
Cc1cccc(NC(=S)N(CCc2ccncc2)C(C)C)c1C	-3.7%	-10	-4%	-1%
Cc1ccc(S(=O)(=O)N2Cc3ccccc3CC2C(=O)Nc2cc(C)on2)cc1 (centres undefined)	-8.9%	-9	-14%	3%
COCCNC(=S)N/N=C(\C)c1cccc(C(F)(F)F)c1	-0.2%	4	-12%	-13%
N#CC(c1ccccc1)C1CCN(Cc2ccccc2)CC1 (centres undefined)	0.3%	5	-1%	-6%
COc1ccc(CCN(C)C(=O)COc2ccc(N(C)S(=O)(=O)c3ccc(C)cc3)cc2)cc1OC	-1.0%	nt	nt	6%
COc1ccccc1C1C2=C(N=c3s/c(=C/c4cccc(OCC(=O)O)c4)c(=O)n31)c1ccccc1CC2 (centres undefined)	?	-21	3%	-14%
Cc1ccc(C(=O)NCC(=O)N(C)Cc2ccc(Cl)cc2Cl)s1	-1.0%	nt	nt	28%
CCn1c(=O)c(=O)[nH]c2cc(C(=O)NC3CCCC3)ccc21	0.3%	3	1%	2%
O=C(c1ccccc1)C1OC1C(=O)c1ccccc1 (centres undefined)	-0.8%	nt	nt	1%
CCO[C@H]1OC(C(=O)NCc2nc3ccccc3[nH]2)=C[C@@H](c2ccc3c(c2)OCO3)[C@@H]1CCCO	1.5%	nt	nt	-17%
CCC(C)C1Nc2ccc(C(=O)NCCc3ccc(OC)c(OC)c3)cc2NC1=O (centres undefined)	0.5%	nt	?	3%
CCN(CC)c1ccc(S(=O)(=O)N2CCOCC2)cc1NC(=O)COC(=O)C1=COCCO1	-1.8%	nt	nt	-21%
O=C(CSc1cc(Cl)ccc1Cl)NCCCn1ccnc1	3.7%	nt	0%	-7%
COc1cc(OC)cc(C(=O)NCCCNC(=O)c2cccnc2)c1	3.9%	nt	11%	-6%
Cc1ccc(CC(=O)Nc2cccc(C)n2)cc1	0.5%	-9	-57%	-5%
COc1ccccc1-c1nnc(-c2ccc(F)cc2)o1	-3.6%	nt	nt	-7%
CCC(C)N1CC(C(=O)NC2CCCCC2)CC1=O (centres undefined)	-2.3%	-5	-4%	-19%

Following part
SMILES	Rango complex inh	GLA inh pH 4.5	miR-21 reporter	Rango release inh
CCOC(=O)Cc1cc(=O)n2[nH]c(C(C)(C)C)cc2n1	-3.2%	9	-6%	3%
CSc1ccc(/C=C(/NC(=O)c2ccco2)C(=O)N2CCCCC2)cc1	2.3%	nt	2%	-9%
CCOC(=O)C1CCN(C(c2cccc(OC)c2)c2sc3nc(C)nn3c2O)CC1 (centres undefined)	0.0%	-4	-10%	1%
Cc1ccc(NC(=O)CN(C)CC(=O)Nc2c(C)cccc2C)c(Br)c1	2.9%	0	-1%	-3%
O=C(Nn1cnnc1)c1ccc(Cl)c(Cl)c1	-0.2%	nt	-4%	-6%
CCOC(=O)c1c(C)oc2c1c1c(c3ccccc32)OCN(Cc2ccccn2)C1	-0.1%	-7	-50%	-10%
CCOc1ccccc1N1Cc2cc(C)c(C)cc2C1	?	7	-14%	-18%
CCCCNC(=S)NNC(=O)c1csc(C)c1C	4.1%	3	-25%	-5%
Cc1cccc(C(=O)NNC(=O)c2cc3cc4ccccc4nc3s2)c1	-2.8%	-4	-17%	-13%
C=CCOc1cccc(/C=C\c2nc(O)c([N+](=O)[O-])c(=O)[nH]2)c1	-4.9%	nt	-1%	-11%

Profiles from above. Values in the order: Rango complex inh	GLA inh pH 4.5	miR-21 reporter	Rango release inh
C=CCOc1cccc(/C=C\c2nc(O)c([N+](=O)[O-])c(=O)[nH]2)c1 is entered as -4.9%	nt	-1%	-11%
CCOC(=O)Cc1cc(=O)n2[nH]c(C(C)(C)C)cc2n1 is entered as -3.2%	9	-6%	3%
CSc1ccc(/C=C(/NC(=O)c2ccco2)C(=O)N2CCCCC2)cc1 is entered as 2.3%	nt	2%	-9%
O=C(Nn1cnnc1)c1ccc(Cl)c(Cl)c1 is entered as -0.2%	nt	-4%	-6%
CCCCNC(=S)NNC(=O)c1csc(C)c1C is entered as 4.1%	3	-25%	-5%

Continuation.
SMILES	Rango complex inh	GLA inh pH 4.5	miR-21 reporter	Rango release inh
O=C(COC(=O)CCCN1C(=O)c2ccccc2C1=O)Nc1ncc(Cl)cc1Cl	?	-4	6%	1%
CCOC(=O)C1=C(C)NC2=C(C(=O)C(C(=O)OCC)C(c3ccco3)C2)C1c1ccccn1 (centres undefined)	?	8	1%	?
NC(=O)c1cc(N=Nc2c(N)[nH]n(-c3c(Cl)cc(Cl)cc3Cl)c2=O)ccc1Cl	-5.1%	0	3%	-1%
COC(=O)C(NNc1ccccc1C)(NC(=O)c1ccc(F)cc1)C(F)(F)F (centres undefined)	1.3%	4	-5%	-1%
Brc1ccccc1OCCCCCN1CCOCC1	-0.2%	-15	-37%	3%
Cc1ccc(-c2nc3ccccc3nc2NN)cc1	-3.1%	-18	-61%	2%
CC(=O)Nc1cccc(Oc2cnc3ccccc3n2)c1	4.6%	-7	-22%	?
CCOC(=O)c1c(NC(=O)COC(=O)CNC(=O)c2ccco2)sc(C(C)=O)c1C	?	5	-1%	14%
CN1C(=O)CC(N2CCN(c3ccccn3)CC2)C1=O (centres undefined)	3.2%	2	-1%	0%
COc1ccc(S(=O)(=O)N2CCN(Cc3cccc([N+](=O)[O-])c3)CC2)cc1	-1.0%	nt	nt	6%
Fc1ccccc1/C=N/N1CCN(Cc2ccccc2Cl)CC1	-4.7%	nt	-23%	-2%
O=C(Nc1ccc(Br)cc1)C1C2C=CC3(O2)C1C(=O)N(CCN1CCCCC1)C3C(=O)NC1CCCCC1 (centres undefined)	?	nt	-1%	14%
Cn1ccnc1SCC(=O)c1ccc(Br)cc1	-0.7%	-14	-44%	-4%
O=C(c1cccc(OC2CCN(Cc3ccc(F)cc3Cl)CC2)c1)N1CCCC1	-0.3%	nt	9%	2%
CCOC(=O)c1c(NC(=O)CNC2CCCc3ccccc32)sc(C(N)=O)c1C (centres undefined)	-2.6%	1	-4%	9%
Cc1cc(NC(=O)Cn2cnc3c(nnn3-c3cccc(F)c3)c2=O)no1	-2.7%	-1	-2%	1%
COc1ccc(-c2cn(-c3ccccc3)nc2CO)cc1	-2.1%	nt	-40%	-9%
O=C(NC1(C(F)(F)F)NC(=O)N(CC2CCCCC2)C1=O)c1ccco1 (centres undefined)	0.9%	-2	0%	2%
COc1ccc(/C=C/C(=O)NC(=S)Nc2ccc(S(=O)(=O)Nc3nccnc3OC)cc2)cc1	1.2%	-6	-13%	-9%
CC(C)NC(=O)NNC(=O)Cn1nnc(-c2cccc(Cl)c2Cl)n1	1.7%	3	-2%	1%
CC[C@]12c3[nH]c4ccc(OC)cc4c3CCN1C(=O)C(CC(=O)NCc1cccc(C(F)(F)F)c1)C[C@@H]2C(=O)N1CCN(C(=O)c2ccco2)CC1 (some centres undefined)	?	nt	nt	-5%
CCCNC(=O)COC(=O)/C=C/c1ccco1	-0.2%	4	-6%	?
COc1ccc(CCN(C)C2CCCN(S(=O)(=O)c3ccccc3)C2)cc1OC (centres undefined)	-2.1%	nt	0%	-4%
C/C(=N\N1CCN(C)CC1)c1ccc(Cl)c(Cl)c1	-0.1%	5	-2%	7%
Cc1nc(CNS(=O)(=O)c2ccc3c(c2)OCCO3)cs1	1.7%	6	-2%	3%
Cc1ccc(S(=O)(=O)Oc2ccc(N3C(=O)C4C5CCC(C5)C4C3=O)cc2)cc1 (centres undefined)	4.9%	0	9%	2%
COc1ccc(Cl)cc1NC(=O)Cn1c(=O)n2nc(C)nc2c2ccccc21	2.9%	2	5%	14%
CCC(C)n1c(SCC(=O)Nc2ccccc2C(F)(F)F)nc2ccsc2c1=O (centres undefined)	0.0%	-5	10%	1%
O=C(CSc1ncnc2nc[nH]c12)Nc1nnc(SCc2ccc(Cl)c(Cl)c2)s1	3.6%	4	-11%	-7%
Cn1c(=O)oc2cc(S(=O)(=O)NCCN3CCN(c4ccccc4F)CC3)ccc21	-1.4%	-14	-5%	7%
